From PubChem BioAssay
FEN1 inh: qHTS Assay for the Inhibitors of Human Flap endonuclease 1 (FEN1). P39748. Recombinant FEN1 flap cleavage, fluorescence, 15 min. Potency, µM (highest dose often 114 µM), inactives show at the top dose activity change, negative = inhibition, usual class: inhibitors. actives 0.35% (n = 390,000); further: nearly all actives have a fitted effect of over 65% in size
Target sequence (P39748 whole entry, looked up): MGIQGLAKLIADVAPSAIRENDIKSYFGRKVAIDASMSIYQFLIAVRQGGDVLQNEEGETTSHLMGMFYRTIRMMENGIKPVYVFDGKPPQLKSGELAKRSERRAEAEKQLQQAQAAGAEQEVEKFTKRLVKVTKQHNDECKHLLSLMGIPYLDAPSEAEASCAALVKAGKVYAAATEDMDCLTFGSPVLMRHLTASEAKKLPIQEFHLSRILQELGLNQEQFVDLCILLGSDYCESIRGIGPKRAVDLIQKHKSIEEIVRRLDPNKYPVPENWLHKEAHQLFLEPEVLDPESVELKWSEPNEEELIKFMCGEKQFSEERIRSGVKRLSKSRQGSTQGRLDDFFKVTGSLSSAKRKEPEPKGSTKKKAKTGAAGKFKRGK
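With each library titrated from low to high concentration, compounds met 10 nM FEN1 for 15 min at room temperature before 50 nM substrate was added; readings at 0 and 15 min fed four-parameter Hill curve fits.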
N370S GC mod: qHTS Assay for Inhibitors and Activators of N370S glucocerebrosidase as a Potential Chaperone Treatment of Gaucher Disease. Lysosomal acid glucosylceramidase (Homo sapiens), P04062. N370S GC spleen homogenate, 4MU-glucoside fluorescence. Potency, µM (titrated, usually from 59.4 µM), without a hit: at the top dose activity change, negative = inhibition, usual class: inhibitors. actives 0.092% (n = 330,000). AID 2101, 2009;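 further: 0% = full enzyme activity and -100% = no enzyme basal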
* = called active by the depositor; ? = inconclusive; · = no result given; [ ] = dose if it differs, or a comment. The call rests on the fitted dose curve; in most records, active means well fitted curve in the direction sought with a large enough effect; inconclusive means small, poorly fitted or top-dose-only effect, or another doubt; inactive means no such curve, though single readings can be large; an effect the other way counts as inactive or inconclusive. Unless noted, on the % scale 0 is the no-effect control and ±100 the full control effect; potency means the concentration at half of the fitted maximal effect. A portion of the library; most or all hits stand in other tables.

SMILES | FEN1 inh | N370S GC mod
O=S(=O)(c1ccc(F)cc1)N(CC(O)Cn1c2ccccc2c2ccccc21)c1ccccc1 (centres undefined) | 0% | ·
O=C(Nc1ccc(-c2nc3ccccc3o2)cc1)C1CCCO1 (centres undefined) | -2% | -6%
Cc1ccc(-n2c(Cc3cccn3C)nnc2SCC(=O)Nc2ccc3c(c2)OCO3)cc1 | -22% | 8%
COc1ccccc1NC(=S)NC(C)=O | -8% | 2%
COc1ccc(C)cc1NC(=O)c1cnc2ccc(C)cn2c1=O | -2% | ·
CC(=O)Nc1ccc(NC(=O)CN(c2ccccc2Cl)S(C)(=O)=O)cc1 | -7% | -21%
O=C(CN1C(=O)C2CC=CCC2C1=O)Nc1ccc(S(=O)(=O)N2CCOCC2)cc1 (centres undefined) | 4% | -12%
FC(F)Oc1ccc(NC(=S)NNc2ccnc3cc(Cl)ccc23)cc1 | -24% | 3%
COC(=O)C1=C(C)NC2=C(C(=O)CC(c3cccs3)C2)C1c1ccsc1 (centres undefined) | 12% | 21%
O=C(CCC(=O)N1CCN(c2ccccc2)CC1)Nc1nnc(C2CCCCC2)s1 | 7% | -2%
Cc1ccc(C)c(Cn2c(=O)n(Cc3ccco3)c(=O)c3oc4ccccc4c32)c1 | 12% | ·
Cc1ccc(NC(=S)Nc2nc(CC(=O)Nc3ccccc3)cs2)cc1 | 4% | 10%
CCN(CC(=O)Nc1ccccc1C(F)(F)F)C(=O)CSCc1ccc(C)cc1 | -10% | 1%
Nc1c(/C=C2/C=CC(=O)C(O)=C2)c(=O)nc2sc(CC(=O)N3CCCCC3)nn12 | -2% | -18%
COc1ccc2nc(C)cc(C(=O)O)c2c1 | 3% | 0%
COc1ccccc1CNC(=O)CCNS(=O)(=O)c1ccc2c(c1)CC(C)N2C(C)=O (centres undefined) | 1% | 1%
CC1CCCCC1NC(=O)CSc1nnc(COc2ccc(Cl)cc2)o1 (centres undefined) | -2% | -7%
COc1ccc(-c2nc(CC(=O)Nc3cccc(S(=O)(=O)NC4=NCCC4)c3)cs2)cc1 | -18% | ·
CC1CC(N(C(=O)C2CC2)c2ccccc2)c2ccccc2N1C(=O)C1CC1 (centres undefined) | 5% | 7%
COc1ccc(-c2cn3ccccc3n2)cc1 | -13% | -1%
FC(F)(F)c1ccc(Cl)c(-n2c(-c3cc(-c4ccco4)[nH]n3)n[nH]c2=S)c1 | 0% | -7%
Cc1nc2ccc(NC(=O)c3ccc(Cl)nc3)cc2s1 | 10% | 7%
CCO[C@H]1OC(C(=O)N2CCN(Cc3ccc4c(c3)OCO4)CC2)=C[C@@H](c2ccc(Br)cc2)[C@@H]1CCCO | -13% | ?
COc1cccc(-n2c(SCC(=O)OC(C)C)nnc2-c2cccnc2)c1 | 7% | 3%
COC(=O)c1ccc(N=NNc2cccc(Br)c2)cc1 | 4% | -10%
Cc1ccnc(NS(=O)(=O)c2ccc(NC(=O)COc3ccccc3)cc2)n1 | 2% | -1%
CCCc1cc(=O)oc2cc(C)cc(OCC(=O)Nc3cccnc3)c12 | 8% | 0%
Cc1ccc(C(=O)NCC(=O)NCCCc2ccccc2)cc1 | 13% | -6%
Cc1ccc2[nH]c(=O)c(CN(CCCN3CCOCC3)C(=O)Nc3cccc(Cl)c3)cc2c1 | 1% | -27%
CCS(=O)(=O)N1CCC(C(=O)NCc2cccnc2)CC1 | 6% | 1%[12.8 µM]
Cc1ccc(C(=O)c2c3ccc([N+](=O)[O-])cc3[n+]([O-])n2CCCN)cc1 | 3% | ?
CC1CCN(S(=O)(=O)c2ccc(Br)s2)CC1 | -8% | 9%
Cc1ccc(C)c2c1[nH]c1ccc([N+](=O)[O-])cc12 | -14% | 3%
O=C(Nc1ccc(Cl)c(Cl)c1)N1CCCCCC1 | ? | 2%
CN1/C(=C/C(=O)C2CCC2)Sc2ccccc21 | -23% | -13%
Cc1nc2ccc(S(=O)(=O)NCC(=O)N3CCCCC3)cc2s1 | -13% | 0%
COCCCn1c(=O)/c(=C\c2ccccc2OC(F)F)s/c1=C(/C#N)C(=O)N1CCOCC1 | -16% | -15%
CCCn1c2c(c(=N)c3c1CCC3)CCC2 | 1% | -1%
O=CNCC(=O)NCCc1ccc(Cl)cc1 | -9% | -2%
O=C(NCC(c1cccs1)N1CCOCC1)c1cccnc1 (centres undefined) | -6% | -17%
COc1ccc(NC(=O)C(c2ccc(C)cc2)N(C)C(=O)CC2NC(=O)NC2=O)cc1 (centres undefined) | 6% | 8%
COc1ccc(S(=O)(=O)Cc2ccc(C(=O)NCCCN3CCc4ccccc4C3)o2)cc1 | -12% | -2%
CN(C)/C=C(\C=O)c1cccc(Cl)c1 | 8% | 9%
Cc1c(NC(=O)/C(C#N)=C/c2c(Oc3ccccc3)nc3ccccn3c2=O)c(=O)n(-c2ccccc2)n1C | -2% | 7%
O=C(CSc1nccc(-c2cccs2)n1)Nc1ccc(Cl)cc1 | -17% | 7%
OCC1(Cc2ccc(F)cc2)CCCN(CCc2ccccc2)C1 (centres undefined) | 5% | -7%
Cc1cc(OCC(=O)NCC2(N(C)C)CCCCC2)cc(C)c1Cl | 4% | ·
CCn1c(=O)n(-c2ccc3c(c2)OCO3)c2nc(-c3ccc(C(C)C)cc3)nc(C(N)=O)c21 | 14% | ·
COc1ccc(OCC2Cc3c(-c4ccccc4)nc4c(c3CO2)CN(CCOc2ccccc2)CC4)cc1 (centres undefined) | · | -4%[12.8 µM]
O=C(O)c1ccc2c(c1)C(=O)N([C@H](Cc1ccc(-c3ccccc3)cc1)C(=O)O)C2=O | · | -2%
O=C(CSc1ccccc1)OCC(=O)N1CCN(C(=O)c2ccco2)CC1 | -8% | ·
COc1ccccc1N1CCN(c2ccc(=O)n(CC(=O)Nc3ccc(F)c(F)c3)n2)CC1 | -8% | ·
Cc1cc(NC(=O)CSc2ccccn2)no1 | 0% | 4%
COc1ccc(CCNC(=O)c2ccc(Cl)c(S(=O)(=O)N3CCCCCC3)c2)cc1 | 11% | ·
CS(=O)(=O)c1ccc(C(=O)NC(Cc2ccccc2)c2ccccc2)cc1 (centres undefined) | -2% | 0%
O=C(NNC(=S)Nc1ccccc1)c1cccc(S(=O)(=O)N2CCOCC2)c1 | -2% | -8%
NC1=C(Br)C(=O)c2ccccc2C1=O | -10% | -7%
COc1ccc(C)cc1NC(=O)CN(c1ccccc1F)S(C)(=O)=O | -5% | 15%
Cc1ccc(C(=O)Nc2ncc3c(Cl)cccc3n2)cc1 | 11% | 9%
Cc1ccc(-c2csc3ncn(CC(N)=O)c(=O)c23)cc1C | -1% | 4%

(cont.)
SMILES | FEN1 inh | N370S GC mod
COC(=O)CCCC(=O)N1CCC(CCC(=O)NCc2ccc(F)cc2)CC1 | 14% | -3%
CC(C)(C)OC(=O)[C@H](Cc1ccccc1)NC(=O)c1nc[nH]c1C(=O)N1CCNCC1 | 2% | ·
Cc1nn(-c2ccccc2)c(Cl)c1C(=O)NCC(=O)O | 6% | 4%
Cc1cccc(NC(=O)c2nc[nH]c2C(=O)N[C@@H](Cc2ccccc2)C(=O)OCc2ccccc2)c1 | 1% | 17%
Cc1cccc(CC(=O)c2c[nH]c3ccccc23)c1 | 1% | 23%
CN1CCN(C(=O)C2=C[C@H](c3ccc(Br)cc3)C[C@H](OCCCCO)O2)CC1 | 20% | -6%
O=C(CN1CCN(S(=O)(=O)c2cc(C(F)(F)F)ccc2Cl)CC1)N1CCc2ccccc2C1 | -13% | ·
C=CCNC(=O)c1oc2ccc(S(=O)(=O)N3CCC4(CC3)OCCO4)cc2c1C | -3% | 0%
O=C(COc1ccc2c(-c3ccccc3)cc(=O)oc2c1)Nc1cccnc1 | -8% | -14%
CCOC(=O)C1=C(CSc2n[nH]c(N)n2)NC(=O)NC1C (centres undefined) | -16% | 5%[2.35 µM]
CN(C)C(=O)Cn1nc(-c2ccccc2)c2ccccc2c1=O | 1% | -5%
N/C(=N\S(=O)(=O)c1ccc(Cl)s1)c1ccccc1 | 0% | -1%
N#CCCN1CCN(Cc2cc(-c3ccccc3)ccc2O)CC1 | -12% | -3%
Cc1ccc(CCNC(=O)Cn2cccc2)cc1 | -5% | -23%
Cc1nn(-c2ccc(N3CCCC3)nn2)c(C)c1CCC(=O)Nc1ccc(F)cc1F | -8% | ·
C/C(=N\NC(=O)CSc1nc(C)cc(C)n1)c1ccc2c(c1)OCCO2 | -4% | 2%
COC(=O)c1ccc(C(=O)NC(=S)Nc2nc3c(s2)CC(C)CC3)cc1 (centres undefined) | 7% | 8%
Cc1ccc(Cl)cc1NC(=O)CCS(=O)(=O)c1ccc(Br)s1 | -9% | ·
COc1cccc(/C=C2\N=C(c3c(-c4ccccc4)noc3C)OC2=O)c1 | -7% | -10%
COC(=O)c1ccc(CC(=O)c2c(C)cc(O)cc2O)o1 | ? | -6%
CC(C)Cc1nnc(NC(=O)C2CCN(C(=O)c3ccc(Cl)cc3)CC2)s1 | -2% | -2%
CCN(CC)S(=O)(=O)c1cc(C(=O)OCC(=O)NC(=O)c2cccn2C)ccc1C | -4% | -6%
CCOC(=O)CN(C(=O)COc1nc(C)cc(C)c1C#N)c1cccc(Cl)c1 | 2% | ?
CNC(=O)c1ccccc1Sc1ccccc1C#N | -3% | 5%
C[C@H](O)[C@@H]1C(=O)N2C(C(=O)O)=C(SCCN=CN)C[C@@H]12 | · | -10%[21.6 µM]
COc1cc(S(=O)(=O)Nc2ccc3nc(C)sc3c2)ccc1NC(C)=O | 8% | ·
CC(C)Cc1ccc(C(C)C(=O)N2CCOCC2)cc1 (centres undefined) | -17% | -1%
Cc1ccc(C)n1-n1cnc2sc(-c3ccccc3)cc2c1=O | 1% | 14%
COc1ccc(C(CC(=O)NCC(OC)OC)NS(=O)(=O)c2ccc(Cl)cc2)cc1 (centres undefined) | 10% | -13%
CCc1ccc(NC(=O)c2ccc(NC3=NC4CS(=O)(=O)CC4S3)cc2)cc1 (centres undefined) | -13% | -1%
CC(C)c1ccc(NC2CCCN(C(=O)c3ccoc3)C2)cc1 (centres undefined) | -12% | 2%
Nc1ccc(C(=O)Oc2ccc([N+](=O)[O-])cc2)c(O)c1 | · | 4%
Cc1cc(C(=O)Nc2c(C)n(C)n(-c3ccccc3)c2=O)c(C)o1 | -10% | -3%
Cc1cccc(Cn2cnc3ccccc32)c1 | 6% | 7%
COc1ccc(/C=C/C(=O)NCCc2ccc(S(N)(=O)=O)cc2)cc1 | 6% | 14%
O=C(c1cc(-c2ccc(Cl)c(Cl)c2)on1)N1CCN(c2ccccc2)CC1 | -13% | 9%

A different layout for part of the listing above:
Sequence of screens – FEN1 inh | N370S GC mod
CCc1ccc(NC(=O)c2ccc(NC3=NC4CS(=O)(=O)CC4S3)cc2)cc1 (centres undefined)
  -13% | -1%
C[C@H](O)[C@@H]1C(=O)N2C(C(=O)O)=C(SCCN=CN)C[C@@H]12
  · | -10%[21.6 µM]
COc1ccc(C(CC(=O)NCC(OC)OC)NS(=O)(=O)c2ccc(Cl)cc2)cc1 (centres undefined)
  10% | -13%
O=C(c1cc(-c2ccc(Cl)c(Cl)c2)on1)N1CCN(c2ccccc2)CC1
  -13% | 9%

Structural class, those above with a cyano group
SMILES | FEN1 inh | N370S GC mod
COCCCn1c(=O)/c(=C\c2ccccc2OC(F)F)s/c1=C(/C#N)C(=O)N1CCOCC1 | -16% | -15%
Cc1c(NC(=O)/C(C#N)=C/c2c(Oc3ccccc3)nc3ccccn3c2=O)c(=O)n(-c2ccccc2)n1C | -2% | 7%
N#CCCN1CCN(Cc2cc(-c3ccccc3)ccc2O)CC1 | -12% | -3%
CCOC(=O)CN(C(=O)COc1nc(C)cc(C)c1C#N)c1cccc(Cl)c1 | 2% | ?
CNC(=O)c1ccccc1Sc1ccccc1C#N | -3% | 5%

(list continues)
SMILES | FEN1 inh | N370S GC mod
Cc1ccc(N2CC(c3nc(-c4ccc(Cl)cc4)no3)CC2=O)cc1F (centres undefined) | 4% | ·
COc1ccc(C2/C(=C(\O)c3ccc4c(c3)OCCO4)C(=O)C(=O)N2CCCn2ccnc2)cc1 (centres undefined) | -6% | -5%
CCn1c(=O)c2cc(S(=O)(=O)NCc3ccccc3)ccc2n(CC)c1=O | 4% | -9%
COc1ccc(NC(=O)N2CCC(c3ccccc3)C2)c(OC)c1 (centres undefined) | 1% | 1%
COc1ccc(NC(=O)c2ccc(COc3ccccc3Br)o2)cc1OC | -13% | 9%
CC[C@@]1(c2ccccc2OC)ON(c2ccccc2C(F)(F)F)C1=O | -17% | ·
O=C(Nc1ccc2cn[nH]c2c1)c1ccc(Cl)c(S(=O)(=O)N2CCOCC2)c1 | 2% | -3%
Nc1nc(SCCO)[nH]c(=O)c1NC(=O)c1ccc(Br)o1 | 1% | -10%
O=C(NC1CCCCC1)c1ccc2c(c1)N(Cc1cccc(Cl)c1)C(=O)c1ccccc1S2(=O)=O | 8% | ·
CN1CCN(NC(=O)CSc2ccc(Cl)cc2Cl)CC1 | -4% | -7%
CC(C)c1ccccc1OCCNC(=S)NC(=O)c1cccnc1 | 9% | -2%
Cc1ccc(-c2nn(-c3ccc(F)cc3F)c3c2cnc2c(F)cccc23)cc1 | 14% | ·
O=C(NNC(=O)c1ccccc1C(=O)O)c1cc2ccccc2o1 | -14% | -1%
C/C(=N/NC(=O)CNc1ccc(C)cc1)c1ccc(Cl)cc1 | ? | 2%
